HPGD block – qHTS Assay for Inhibitors of HPGD (15-Hydroxyprostaglandin Dehydrogenase). 15-hydroxyprostaglandin dehydrogenase [NAD(+)] (Homo sapiens), P15428. purified HPGD, NADH fluorescence kinetic, PGE2 substrate. Potency, µM, for the others: at the highest dose activity change, negative = inhibition, hits mostly inhibitors. 150,000 tested, 4.3% active. AID 894, 2007; active = well fitted inhibition curve with a large enough effect (not every such curve was filed as active); inconclusive = small, poorly fitted or top-dose-only effect, or another doubt; inactive = no such curve, though single readings can be large or run the other way;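 also: top concentration of the series not given in the record; plate controls included wells without enzyme; inactives centre near -10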
Target sequence (P15428 whole entry, looked up): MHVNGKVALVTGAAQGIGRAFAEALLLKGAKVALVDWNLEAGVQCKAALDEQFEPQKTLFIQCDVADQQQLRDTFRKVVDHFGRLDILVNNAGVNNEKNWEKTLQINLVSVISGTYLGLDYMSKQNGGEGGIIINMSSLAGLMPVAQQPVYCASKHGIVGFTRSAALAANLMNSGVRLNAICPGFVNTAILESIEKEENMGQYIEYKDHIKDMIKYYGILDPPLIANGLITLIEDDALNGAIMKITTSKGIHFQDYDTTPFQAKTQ
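20 nM HPGD preincubated 15 min at room temperature with compound in 50 mM Tris-HCl pH 8, 0.01% Tween 20. Started with 1 mM NAD+ and 30 uM prostaglandin E2; NADH fluorescence (360/450 nm) read 5 times over 30-s intervals, last minus first.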
Active calls of the source: *; ? = inconclusive; & = joins results of further samples. % is scaled to controls: 0 for no effect and ±100 for the full control effect; potency is read from the fitted curve at half-maximal effect. These rows are one share of the data, so the mix of outcomes need not match the whole.

HPGD block	structure
-21%	COc1cccc(N2CC34C=CC(O3)C(C(=O)O)C4C2=O)c1 (centres undefined)
-23%	N#Cc1ccc(Oc2nc(C(N)=O)cc(-c3ccccc3)n2)cc1
?	CC(=O)Nc1sc(C)c(C)c1C(=O)OCC(=O)N(C)C1CCS(=O)(=O)C1 (centres undefined)
-11%	COc1ccc(CN2CC(C(=O)NCCCN3CCN(Cc4ccccc4)CC3)CC2=O)cc1 (centres undefined)
-16%	CSc1nc(N2CCN(CCO)CC2)c2sc3nc(-c4ccco4)c4c(c3c2n1)CCC4
-8%	O=c1sc2ccccc2n1COc1ccc(Cl)cc1
?	NNc1nc(N)c2c(n1)-c1ccccc1CC21CCCC1
16µM*	CC(Sc1nc(C(C)(C)C)cc(-c2ccccc2)c1C#N)C(=O)Nc1ccccc1 (centres undefined)
-3%	O=c1c2ccccc2nc(-c2ccccc2)n1CCN1CCOCC1
-22%	CC(C)Cn1c(-c2nn(C)cc2Cl)n[nH]c1=S
-23%	O=C1Nc2ccccc2C12OCC1(CO2)COC2(OC1)C(=O)Nc1ccccc12 (centres undefined)
-8%	Clc1ccc(C2[C@H]3CN(CC4CCCCC4)[C@H](c4ccccc4)C34CC2(c2cccnc2)C4)cn1 (some centres undefined)
?	Cc1ccc(Nc2nnc(-c3ccc4c(c3)OCO4)o2)c(C)c1
-14%	CCC(Sc1ncccc1C(=O)Oc1cccc([N+](=O)[O-])c1)C(=O)Nc1ccccc1OC (centres undefined)
-9%	Cc1ccsc1C(=O)NNC(=S)NCC(C)C
4µM*	CSCCOC(=O)COc1ccc(/C=N/NC(=O)c2nn(C)cc2Cl)cc1
-6%	O=C(NCCC1=CCCCC1)c1cnccn1
-22%	Cc1c(-c2ccccc2)oc2c(C(=O)OCC(=O)Nc3ccc(C(N)=O)cc3)cccc2c1=O
-10%	CCC(Sc1nc(C)cc(C)n1)C(=O)NC1=NN=C(c2ccc(C)cc2)CS1 (centres undefined)
-23%	COc1cc(/C=N/NC(N)=O)ccc1OCC(=O)Nc1ccc(C)c(C)c1
-10%	O=C(COC(=O)c1ccc(Cl)nc1)NCc1ccc2c(c1)OCO2
6%	COC(=O)Cc1c(C)nc2nc(Cc3ccccc3)[nH]n2c1=O
-13%	COC(=O)c1ccc(CSc2nc3c(cnn3-c3ccc(F)cc3)c(=O)[nH]2)o1
?	COc1ccc(-c2nn3cnnc3s2)cc1OC
18µM*	C=CCOC(=O)C1=C(C)NC(SCC(=O)N(CC)CC)=C(C#N)C1c1ccco1 (centres undefined)
?	NC(=O)c1ccccc1N=Cc1ccc2ccccc2c1
-4%	O=C(NCCCn1ccnc1)c1cn(-c2ccccc2)nc1-c1ccccc1
-7%	O=C(COC(=O)Cn1cnc2ccccc21)NCCc1ccccc1
-5%	c1ccc(Oc2cc(-n3cncn3)ncn2)cc1
?	O=C(N1CCOCC1)N(Cc1ccco1)CC1CCCO1 (centres undefined)
-14%	COC(=O)CCS(=O)(=O)c1ccc(Cl)c(Cl)c1
-4%	O=C(O)c1c[nH]c(=S)n1-c1ccc(F)cc1
-4%	C[C@H]1Cc2c(COc3ccccc3)nc3c(c2CO1)CN(S(=O)(=O)c1ccc(Cl)c2nonc12)CC3
-5%	CC(C)CCOCC1CC2(CC(C)(c3csc(N)n3)OC2=O)C(=O)O1 (centres undefined)
-14%	Cc1ccc(NC(=O)c2cc(C(=O)c3cc(Cl)ccc3O)cn(-c3ccc(C)cc3)c2=O)cc1
-16%	CC(=O)N(/N=C1\Sc2ccccc2C1=O)c1ccccc1

A draw from above in order of SMILES length, rising.
HPGD block	structure
-3%	O=c1c2ccccc2nc(-c2ccccc2)n1CCN1CCOCC1
-21%	COc1cccc(N2CC34C=CC(O3)C(C(=O)O)C4C2=O)c1 (centres undefined)
16µM*	CC(Sc1nc(C(C)(C)C)cc(-c2ccccc2)c1C#N)C(=O)Nc1ccccc1 (centres undefined)

(further entries)
HPGD block	structure
-16%	Cc1c(-c2ccccc2)nc(N)c(C#N)c1-c1cccs1
-6%	COC(C#CCCN(C)C)(c1ccccc1)c1ccccc1
-2%	CCOC(=O)CNC(=O)c1sc(NC(=O)c2ccccc2)nc1C
-16%	CCCCCCCCC#Cc1nc(C)ccc1OC
-14%	Cc1cccc(NC(=O)Cn2cnc3ccc(S(=O)(=O)N4CCC(C)CC4)cc3c2=O)n1
-15%	Cc1cccc(-c2nnn(CC/C(N)=N/O)n2)c1
-20%	CCN1C(=O)c2ccc(C(=O)O)cc2C1=O
1%	CCOc1ccccc1OCCOCCN1CC(C)OC(C)C1 (centres undefined)
-12%	O=C(NC1CCCCC1)C1CCN(S(=O)(=O)N2CCOCC2)CC1
-5%	CC(C)(C)c1ccc(-c2nnc(SC3CCOC3=O)n2Cc2ccccc2)cc1 (centres undefined)
-11%	Cn1c(/C=N/c2nc3ccccc3[nH]2)nc2ccccc21
-1%&-7%	C=C(C)C(O)/C=C/c1ccc(C(F)(F)F)cc1 (centres undefined)

A second format for some results above:
| canonical_smiles | HPGD block |
| --- | --- |
| CC(C)CCOCC1CC2(CC(C)(c3csc(N)n3)OC2=O)C(=O)O1 (centres undefined) | -5% |
| Cc1c(-c2ccccc2)nc(N)c(C#N)c1-c1cccs1 | -16% |

The listing continues.
HPGD block	structure
28µM*	O=C(O)c1cc(=O)c2c(Cl)cc(Cl)cc2[nH]1
-15%	COC(=O)C(Cc1ccc(O)cc1)NC(=O)CCC(=O)Nc1ccc(S(N)(=O)=O)cc1 (centres undefined)
-6%	CCn1c(NC(=O)Nc2cccc(C)c2C)cc2sccc21
-26%	COC(=O)c1[nH]c2cc(OC)ccc2c1NC(=O)CN1CCC(C(N)=O)CC1
-3%	Cc1c(NC(=O)C(C)N2C(=O)c3ccccc3C2=O)c(=O)n(-c2ccccc2)n1C (centres undefined)
-16%	COC(=O)c1c(C)oc2ccc(OC(=O)N3CCOCC3)cc12
-9%	COC(=O)c1c(Oc2nc(OC)cc(OC)n2)cccc1Oc1nc(OC)cc(OC)n1
?	COc1ccc(/C=C2\COc3ccccc3C2=O)cc1OC
32µM*	Cc1onc(-c2ccccc2Cl)c1C(=O)OCn1nnc2ccccc2c1=O
-5%	CC(C)(C)C(=O)Cn1ncc(NC2CC2)c(Br)c1=O
-1%	COc1ccc(C2(CNC(=O)Cc3ccc(OC)c(OC)c3)CCOCC2)cc1
-3%	COc1ccc(C2CC(=O)c3cnc(NC(=O)c4cccc(OC)c4)nc3C2)cc1 (centres undefined)
-4%	O=S(=O)(Nc1nc2ccccc2nc1NCCN1CCOCC1)c1cccc(Cl)c1
-1%	O=C(NNC(=O)C1CCCCC1)c1cnccn1
-1%	CCc1nnc(NC(=O)C2CCCN2C(=O)NC2CCCCC2)s1 (centres undefined)
-8%	CN(C)c1nc(N)nc(-c2ccco2)n1
-9%	Cc1occc1C(=O)NNC(=O)c1ccccc1Br
-13%	CCCn1nnc(NC(=O)c2ccc(OCC)c(Cl)c2)n1
-9%	COc1cccc(C(C(=O)NC2CCCCC2)N(C(=O)Cc2cccs2)c2ccc(-n3cnnn3)c(OC)c2)c1 (centres undefined)
?	CCCCOC(=O)CSCC(=O)N1N=C(c2cccs2)CC1c1ccc(F)cc1 (centres undefined)
28µM*	S=C(c1ccc(-c2cc(Cl)ccc2Cl)o1)N1CCOCC1
-8%	COc1ccc(CN=C2NC(=O)CC(C(=O)Nc3ccc(Cl)cc3)S2)cc1 (centres undefined)
-3%	CCC(CC)C(=O)Nc1cc(NC(=O)C(CC)CC)cc(C(=O)O)c1
-10%	O=C(CN1CCC(n2nnc3cc(F)ccc32)CC1)Nc1ccccc1N1CCOCC1

3 of the entries above in order of their number in HPGD block, high to low:
HPGD block	structure
32µM*	Cc1onc(-c2ccccc2Cl)c1C(=O)OCn1nnc2ccccc2c1=O
28µM*	O=C(O)c1cc(=O)c2c(Cl)cc(Cl)cc2[nH]1
4µM*	CSCCOC(=O)COc1ccc(/C=N/NC(=O)c2nn(C)cc2Cl)cc1

Following part.
HPGD block	structure
-4%	CCn1c(CNC(=O)Cc2ccc(OC)cc2)nnc1SCCOc1ccccc1
-8%	O=C(CN1CCN(c2ccc(F)cc2)CC1)Nc1nnc(-c2ccccc2)s1
-8%	COc1ccc(C(C(=O)NC2CCCCC2)N(C(=O)CCl)c2ccc(OC)cc2)cc1 (centres undefined)
?	Cc1cccc(C2=NN(c3ccccc3)[C@@H](C(=O)N3CCOC3=O)[C@@H]2c2ccccc2)c1
-3%	COc1cc(NC(=S)N2CCN(Cc3ccccc3)CC2)cc(OC)c1
-3%	O=C(O)[C@@H]1CCCNC1
-3%	CC1(C)C2(Cl)C(Cl)C(Cl)C(Cl)(C(Cl)Cl)C1(Cl)C2Cl (centres undefined)
-11%	Cc1cc(-n2nc(C)cc2C)nc(N)n1
-6%	COc1ccc(C(C)(C)C)cc1NC(=O)c1cncc(Br)c1
-28%	Cc1cc(OCC(=O)OCC(=O)Nc2cc(C(F)(F)F)ccc2N2CCOCC2)ccc1Cl
6%	O=C(CN1CCC(O)(c2ccc3c(c2)OCO3)CC1)OC1CCCCC1
-7%	O=S(=O)(O)CCS
0%	CCCNC(=O)N1CCN(c2ncccn2)CC1
?	CCOC(=O)c1cnc(SCC(=O)Nc2cc(OC)ccc2OC)nc1N
-30%	CCOC(=O)c1c(NC(=O)CSc2nnc(C)c(=O)[nH]2)sc2c1CCC2
-3%	CCC(Oc1ccccc1)C(=O)Nc1nnc(C(F)(F)F)s1 (centres undefined)
?	CCOC(=O)c1cccc(Nc2nc(-c3cccnc3)nc3ccccc23)c1
28µM*	CCC(OC(=O)c1ccco1)C(=O)NCc1ccc(C)cc1 (centres undefined)
-10%	Cc1ccc(S(=O)(=O)Nc2ccc(Cl)cc2C(=O)c2ccc(F)cc2)cc1
-23%	COCC(=O)Oc1c(S(=O)(=O)c2ccc(C)cc2)c(C)nn1-c1ccccc1
-10%	Cc1ccsc1/C=C(/C#N)C(=O)NCc1ccccc1
-8%	COC(=O)CNC(=O)c1cccc(F)c1
-13%	CC1Cc2nc(SCC(=O)Nc3ccccc3F)n(C)c(=O)c2S1 (centres undefined)
-15%	O=C(CC(c1ccccc1)c1ccccc1)OCn1nnc2ccccc2c1=O
-18%	CCc1nn(CC(=O)NCCCN2CCc3ccccc3C2)c(=O)c2cc3sccc3n12
-6%	O=C(NCCc1ccccc1)c1ccncc1
?	CCOC(=O)c1sc(NC(=O)c2ccc3ncsc3c2)nc1C
-17%	CCOC(=O)c1c(C2CC2)csc1NC(=O)COC(=O)c1ccc[n+]([O-])c1
-4%	CC12CN3CC(C)(CN(C1)C3c1ccc(Br)cc1)C2=O (centres undefined)
-20%	O=C(NCC1CCCO1)C1CC(c2ccc(Cl)c(Cl)c2)=NO1 (centres undefined)
-11%	CC1(N2CCCCC2)C(=O)c2ccccc2C1=O
-9%	CC(C)CCN1CC(C(=O)NCc2ccccc2)CC1=O (centres undefined)
-7%	C[N+]1(CCN=C=NC2CCCCC2)CCOCC1
?	O=C(CCSc1ccc(Cl)cc1)NC12CC3CC(CC(C3)C1)C2
-3%	O=C(NC1CCCCC1)C1CCCN(S(=O)(=O)c2cnc[nH]2)C1 (centres undefined)
-3%	Cc1cccc(NC(=O)CN2C(=O)N/C(=C/c3cc(C)n(C(C)C)c3C)C2=O)c1

3 entries drawn at random from those above, as already listed:
HPGD block	structure
-7%	C[N+]1(CCN=C=NC2CCCCC2)CCOCC1
-9%	CC(C)CCN1CC(C(=O)NCc2ccccc2)CC1=O (centres undefined)
?	O=C(CCSc1ccc(Cl)cc1)NC12CC3CC(CC(C3)C1)C2

Other structures
HPGD block	structure
-1%	COc1cc(/C=C/C(=O)O)cc(S(=O)(=O)NC2CC2)c1OC
-16%	CCOC(=O)c1[nH]c2ccccc2c1NC(=O)NC1CCCCC1
-12%	COc1cc(/C=N/NC(=O)c2cccnc2)ccc1OS(=O)(=O)c1ccc(F)cc1
-7%	Cc1cc(C)nc(-n2nc(C)cc2NC(=O)c2cccc(S(=O)(=O)N3CCCCC3)c2)n1
-8%	CC1CCN(Cc2ccc(NC(=O)C3CCN(c4nnc(-n5cccc5)s4)CC3)cc2)CC1
?	CC(C)CC(C(=O)O)N1C(=O)C2C3CC(C2C1=O)C1C(c2ccccc2)c2sc(=O)[nH]c2SC31 (centres undefined)
?	CCOc1ccc(-c2nc(C#N)c(N3CCN(Cc4ccccc4)CC3)o2)cc1
-15%	O=C(Nc1ccc2c(c1)OCCO2)C1CCN(C(=O)c2ccc(Br)cc2)CC1
?	Cc1cccc(C(=O)Nc2ccccc2C(=O)OCC(=O)Nc2ccc(C#N)cc2)c1
-1%	c1cc2c(cc1C(N1CCNCC1)N1CCNCC1)OCO2
-8%	CNc1cc(CS(=O)c2ccccc2)nc(-c2ccccc2)n1 (centres undefined)
-16%	Cc1cccc(OCCCn2c(=O)sc3ccccc32)c1
?	COc1cc(C(=O)OCC(=O)c2cc(C)n(C)c2C)cc(NC(=O)c2ccco2)c1OC
-12%	Cc1ccc(C2=N/C(=C/N3CCOCC3)C(=O)O2)cc1
-7%	CCN(CC)S(=O)(=O)c1cc(OCC(N)=O)c(C)cc1Cl
?	COC(=O)c1cc(CNC(=O)c2cccc(Cl)c2Cl)ccc1OC
-9%	O=C(CCCN1C(=O)CCC1=O)Nc1ccc2c(c1)OCCO2
-22%	O=C(c1cnc2sccn2c1=O)N(Cc1ccccc1)c1ccccn1

Screening data as filed in PubChem.
